Rango-impB inh – inhibitors of Rango-importin beta complex formation. Q14974. 340,000 compounds, 0.031% hits. AID 540263. Potency, µM (series often up to 92.2 µM), without a hit: at the highest dose inhibition of complex formation. Rango CFP/YFP FRET sensor + importin beta, 45 min; active = rising FRET ratio curve, often small or poorly fitted; inconclusive = mostly compound fluorescence or quenching in the first reads; inactive = flat curves in all reads;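 further: potency means the concentration at half of the fitted maximal effect; 0% = DMSO wells and 100% = buffer wells lacking importin beta; nearly all actives have a fitted effect of over 15% in size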
Target sequence (Q14974 whole entry, looked up): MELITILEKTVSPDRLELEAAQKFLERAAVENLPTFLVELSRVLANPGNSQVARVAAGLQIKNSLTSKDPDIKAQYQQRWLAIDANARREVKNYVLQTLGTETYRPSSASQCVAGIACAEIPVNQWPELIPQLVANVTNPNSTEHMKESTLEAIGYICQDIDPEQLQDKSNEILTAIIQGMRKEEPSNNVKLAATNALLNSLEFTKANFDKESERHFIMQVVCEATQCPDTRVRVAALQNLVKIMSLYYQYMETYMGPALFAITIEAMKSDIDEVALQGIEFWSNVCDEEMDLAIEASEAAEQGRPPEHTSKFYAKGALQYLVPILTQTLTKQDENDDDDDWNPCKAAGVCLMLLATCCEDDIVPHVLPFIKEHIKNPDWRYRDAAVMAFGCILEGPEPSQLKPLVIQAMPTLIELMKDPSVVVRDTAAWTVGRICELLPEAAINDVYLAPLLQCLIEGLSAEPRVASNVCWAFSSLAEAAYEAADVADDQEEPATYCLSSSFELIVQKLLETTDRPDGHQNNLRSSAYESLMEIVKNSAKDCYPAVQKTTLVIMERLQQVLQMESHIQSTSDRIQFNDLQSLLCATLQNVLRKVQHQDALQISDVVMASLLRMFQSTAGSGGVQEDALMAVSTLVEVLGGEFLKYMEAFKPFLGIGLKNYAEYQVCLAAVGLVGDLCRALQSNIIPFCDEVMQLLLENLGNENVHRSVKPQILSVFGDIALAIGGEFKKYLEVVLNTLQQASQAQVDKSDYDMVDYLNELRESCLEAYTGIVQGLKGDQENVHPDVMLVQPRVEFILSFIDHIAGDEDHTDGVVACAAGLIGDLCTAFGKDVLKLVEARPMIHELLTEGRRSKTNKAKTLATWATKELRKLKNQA
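Inhibition scored from the CFP 486 nm/YFP 530 nm FRET ratio 45 min after adding 0.125 microM importin beta to 50 nM Rango biosensor preincubated 5 min with compound (room temperature, PBS with DTT, Tween-20, BSA). No-importin wells as positive control.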
Rango release inh – inhibitors of RanGTP-induced Rango-importin beta complex dissociation; O95149+P62826; Biochemical FRET Rango-importin beta, RanGTP-induced dissociation; Potency, µM (highest dose often 46.1 µM), inactives show at the top dose activity change, negative = inhibition; 340,000 compounds, 0.071% hits; AID 540253; active means falling FRET ratio curve, often poorly fitted, with flat reads before Ran was added; inconclusive means other falling curves, or compound fluorescence or quenching; inactive means flat or rising ratio curve;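 further: potency means the concentration at half of the fitted maximal effect; % of control where 0% means no effect; nearly all actives have a fitted effect of over 45% in size; -100% = wells without RanGTP and RCC1; the record marks most hits as doubtful in a second field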
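Two FRET readings bracket the reaction: one 5 min after compound meets Rango–importin beta, another 45 min after RanGTP-RCC1 (0.6 uM Ran, 0.2 uM RCC1, 2 mM GTP) is added. Only the second defines inhibition.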
GLA inh pH 4.5 – inhibitors of human alpha-galactosidase A at pH 4.5; P06280; purified enzyme, 4-MU-alpha-Gal fluorescence, pH 4.5; activity change, negative = inhibition, % at 105 µM; 230,000 tested, under 10 active; AID 1467; inconclusive = small, poorly fitted or top-dose-only inhibition, or a rising curve; inactive = flat fitted curve, though single readings scatter; no compound was filed as active;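 further: 0% = full activity with enzyme and -100% = basal without enzyme; dose as in the result columns while the protocol names 77 µM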
miR-21 FLuc – raises the signal of a miR-21 reporter; HeLa miR-21 FLuc reporter, luciferase, 48 h; Potency, µM (top dose mostly 38.3 µM), for the others: at the highest dose reporter change, positive = more light; 340,000 tested, under 10 active; AID 2288; active = well fitted rising curve with a large enough effect; inconclusive = small, poorly fitted or top-dose-only effect; inactive = no such curve, though single readings can be large or run the other way;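 further: % of control where 0% means no effect; miR-21 action dims this reporter so a rising signal means less miR-21 action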
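HeLa cells stably expressing CMV-driven firefly luciferase with a downstream miR-21 binding sequence, endogenously expressing miR-21, were treated with titrations (up to about 40uM final) for 48 hours at 37 degree Celsius. Luciferase luminescence was read after lysis.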
Numbers without * were called inactive; ? = inconclusive; / = no result given; [ ] = another dose, or the depositor's remark. The list is partial; count on the stated rates, not on these rows.

Rango-impB inh	Rango release inh	GLA inh pH 4.5	miR-21 FLuc	mol
0.1%	11%	/	/	COc1ccc(N(CCOc2ccccc2)S(=O)(=O)c2ccccc2)cc1
-0.3%	-9%	/	-1%	CCn1cc(S(=O)(=O)Nc2cc(C)ccc2F)cn1
-2.2%	-3%	3	0%	CCC(C)(C)NC(=O)CN(C(=O)c1snc(C(N)=O)c1N)c1ccc2c(c1)OCCO2
1.1%	-9%	4	-21%	CCOC(=O)Cc1c(C)c2c(C)[nH]nc2oc1=O
2.6%	12%	/	/	CCOC(=O)C1C(=O)C(=O)N(C2CCCCC2)C1C(=O)OCC (stereo not given)
-2.9%	-25%	/	-1%	CC(=O)c1ccc(S(=O)(=O)N2CCCC(N(C)CCc3ccccc3)C2)cc1 (stereo not given)
4.6%	-15%	0	-60%	CCOc1cccc(C(=O)NC(=S)Nc2ccccc2)c1
-0.3%	-8%	/	/	CCCNc1nc(-c2cc(C(=O)Nc3ccccc3)on2)cc(C(C)C)n1
-0.5%	2%	3	1%	CC(C)=CCN1CCN(Cc2ccc(C#CC(C)(C)O)cc2)CC1CCO (stereo not given)
0.5%	-1%	6	-2%	O=C(CSc1nnnn1-c1ccccc1F)NNC(=O)c1ccco1
2.3%	-1%	/	/	O=C(NN(Cc1ccccc1)Cc1ccccc1)c1ccccc1
-0.5%	-10%	5	?	CC(C)(C)C(=O)Cn1ncc(Br)c(Br)c1=O
-0.8%	1%	2	-3%	O=C(Nc1ccc(Oc2ncnc3cc(Cl)ccc23)nc1)c1cccs1
0.9%	-15%	/	0%	O=C1COc2ccc(S(=O)(=O)CCC(=O)N3CCN(c4ccccc4)CC3)cc2N1
1.5%	0%	/	/	CC1CCN(C(=O)Cn2cc(C(F)(F)F)ccc2=O)c2ccccc2S1 (stereo not given)
2.3%	-16%	/	-13%	CC(=O)c1c(C)[nH]c(C(=O)Nc2ccc(F)c(F)c2F)c1C
-0.6%	-24%	/	-12%	COc1ccccc1-n1c(SCC(=O)Nc2cccc(C(=O)O)c2)nnc1-c1ccccc1C
17%	-1%	/	/	Cc1ccc(C(=O)N2CCCC(C(F)(F)F)C2)cc1S(=O)(=O)N1CCCCC1 (stereo not given)
4.7%	-15%	2	1%	Nc1nnn(CC(=O)N/N=C/c2ccccc2)n1
1.7%	-2%	0	-34%	Cc1ccc(/C=C/c2nnc(-c3ccccc3)o2)cc1
-0.1%	1%	/	/	Cc1nc(-c2ccc(Cl)cc2)sc1C1(C)CC(c2ccc(Cl)cc2)=NO1 (stereo not given)
?	-12%	/	-6%	Cc1csc(CNC(=O)c2cc(COc3c(C)cccc3C)on2)n1
-2.3%	-1%	/	8%	COc1ccc([C@@H]2[C@@H]3C(=O)N(C(C)(C)C)C(=O)[C@@H]3[C@]3(Cc4ccc(Cl)cc4)C(=O)N(c4ccc(Br)cc4)C(=O)N23)cc1
-1.3%	-6%	/	/	COc1ccccc1CN(C)C(=O)CSCC(=O)Nc1ccccc1F
4.7%	6%	-9	24%	O=S(Cc1ccc(Br)cc1)Cc1nnc(SCc2c(F)cccc2Cl)n1-c1ccccc1 (stereo not given)
-1.2%	-14%	-16	-37%	COc1ccccc1N1CCN(C(=O)CN2C(=O)C3CCCCC3C2=O)CC1 (stereo not given)
2.8%	26%	-11	-5%	CCOC(=O)C1CCN(C(=O)COc2ccc(S(=O)(=O)N3CCCC3)cc2C)CC1
-0.9%	-3%	/	0%	c1ccc2nc3c(nc2c1)CCCC3
?	?	1	-39%	COc1ccc2nc(N3CCC(O)CC3)c(C#N)cc2c1
-4.5%	2%	-7	20%	Cc1cc(SCC(=O)c2ccc(O)c(O)c2)n2nc(C)c(-c3ccccc3)c2n1

Complete entries as entered above. Order of values: Rango-impB inh	Rango release inh	GLA inh pH 4.5	miR-21 FLuc
Shown for `CCn1cc(S(=O)(=O)Nc2cc(C)ccc2F)cn1` = -0.3%	-9%	/	-1%
Shown for `COc1ccc([C@@H]2[C@@H]3C(=O)N(C(C)(C)C)C(=O)[C@@H]3[C@]3(Cc4ccc(Cl)cc4)C(=O)N(c4ccc(Br)cc4)C(=O)N23)cc1` = -2.3%	-1%	/	8%

Next section:
Rango-impB inh	Rango release inh	GLA inh pH 4.5	miR-21 FLuc	mol
?	2%	-3	-7%	O=C(NCc1ccc(Cl)cc1)C(=O)NCC1OCCN1C(=O)c1cccs1 (stereo not given)
-3.5%	?	9	-2%	COc1ccc(-c2nc3scc(-c4ccc(OC)c(OC)c4)c3c(=O)o2)cc1
-2.3%	-1%	/	1%	Cc1cc(=O)[nH]c(Nc2cccc(F)c2)n1
-1.5%	-5%	3	-3%	O=C1c2ccccc2C(=O)N1CC(=O)N1c2ccccc2CCc2ccccc21
-0.2%	0%	/	-13%	Cc1ccc(OCCCCN2CCC(C)CC2)cc1
-0.1%	4%	1	-2%	CCC(=O)NC(=S)Nc1cccc(NC(=O)c2ccccc2Cl)c1
0.5%	7%	/	/	CC1c2ccccc2-c2ccccc2N1C (stereo not given)
-4.0%	-13%	?	-20%	Cc1ccc(-n2c(N)c(C(=O)Nc3ccccc3F)sc2=S)cc1C
4.7%	5%	/	2%	Cc1ccc(C2=NS(=O)(=O)N(C)C(C(=O)NCc3ccc4c(c3)OCO4)=C2)cc1
-5.9%	17%	5	-19%	Oc1ccc(Cl)cc1-c1cc(-c2ccco2)[nH]n1
0.8%	13%	5[21.1 µM]	-1%	CC(C)(C)N(Cc1cc2ccccc2[nH]c1=O)C(=O)c1ccco1
?	-24%	-8	-4%	COC(=O)C1=C2SC(C)C(=O)N2C(N)=C(C#N)C1c1ccc(OC)c(OC)c1 (stereo not given)
-0.5%	-14%	/	/	Cc1ccc(NC(=O)C2CCN(S(=O)(=O)c3ccc4ccccc4c3)CC2)nc1
-2.9%	8%	/	24%	CN(C)S(=O)(=O)N1CCC(Oc2cccc(C(=O)NC3CCCCC3)c2)CC1
-0.2%	-4%	0	-3%	Cc1ccc(C(=O)COC(=O)CNC(=O)CNC(=O)c2ccc(C)cc2)cc1
1.2%	-1%	/	8%	O=C(NC(=S)NCc1cccnc1)c1cc(Br)ccc1Cl
?	-30%	-6[21.1 µM]	-11%	CN1CCN(CCCNC(=O)c2ccc(/C=C3/Sc4ccccc4N(Cc4cccc(Cl)c4)C3=O)cc2)CC1
-1.4%	34%	/	/	O=C(COC(=O)c1c(F)cccc1F)Nc1ccc2c(c1)OCO2
-0.5%	-7%	-6	-1%	Cc1cc(OCC(=O)O)c2ccccc2n1
-5.0%	2%	6	-41%	Cc1cc(=O)[nH]c2n[nH]c(-c3ccccc3)c12
4.3%	-21%	3	1%	CCN=C1SC(C(=O)Nc2cccc(OCC)c2)CC(=O)N1CC (stereo not given)
-1.4%	-19%	2	2%	COc1cc(C(=O)Nc2c(C)cc(C)cc2C)c(-n2cnnn2)cc1OC
3.7%	-2%	-7	-1%	COc1ccc(C(CC(=O)O)NC(=O)c2ccccc2[N+](=O)[O-])cc1 (stereo not given)
0.0%	12%	-16	10%	CCN1CCN(c2cc(C(C)C)nc3c(-c4ccccc4)c(C)nn23)CC1
-1.7%	-11%	/	/	O=C(CC1CC2CCC1C2)N1CCN(S(=O)(=O)c2ccccc2C(F)(F)F)CC1 (stereo not given)
-0.6%	-2%	1	-7%	CCOc1ccc(-c2nnn(CC(=O)N3CCN(c4ccc(F)cc4)CC3)n2)cc1OCC
?	?	8	1%	C=CCn1c(COc2ccccc2)nnc1SCC(=O)N/N=C/c1cc(Cl)ccc1O
-3.4%	-24%	6	16%	O=C1OCCC1Sc1nnc(-c2ccc3c(c2)OCO3)o1 (stereo not given)
-0.5%	13%	4	-10%	CC(NC(=O)c1ccc(Br)s1)C1CCCO1 (stereo not given)
0.2%	5%	5	-17%	N/C(=N\OC(=O)c1ccc(Cl)c([N+](=O)[O-])c1)c1ccccn1
3.5%	-8%	3	2%	COc1ccc(NS(=O)(=O)c2ccc(O)c(C(=O)OCC(=O)Nc3ccc4c(c3)OCCO4)c2)cc1
-0.1%	1%	6	0%	CC(C)OC(=O)CSc1nnc(CNc2cccc(Cl)c2)n1C
?	0%	-13	13%	CCOc1ccc(C2C([N+](=O)[O-])=C(C)N(C)C(=O)N2C)cc1OC (stereo not given)
0.5%	-4%	1	1%	O=C(CCCNS(=O)(=O)c1ccc(Cl)c(Cl)c1)NCCc1ccccn1
4.8%	0%	2	-7%	COc1cc(S(=O)(=O)N2CCC(N3CCCCC3)CC2)ccc1-n1cnnn1
-1.2%	-12%	/	0%	CCC(C)N1CCN(C(=O)c2cc(OC)cc(OC)c2)CC1 (stereo not given)
0.1%	12%	-4	-4%	CSc1nnc2c(n1)OC1(Nc3ccccc3-2)C(=O)Nc2ccccc21 (stereo not given)
1.3%	-13%	-10	-3%	CCOCC(=O)Nc1nnc(COCC)s1
0.0%	-8%	/	2%	CC(=O)N1c2ccc(S(=O)(=O)N3CCCCC3)cc2CC1C(=O)Nc1cccc(C)c1 (stereo not given)
0.2%	-5%	-9	-4%	Cc1ccc(C)c(N2CCN(C(=O)CCc3nc4ccccc4[nH]3)CC2)c1
0.4%	-1%	-2	-48%	Cc1cccc(Nc2nnc(SCC3CCCCO3)s2)c1 (stereo not given)
-0.8%	18%	0	-7%	C=CCc1ccccc1OCC(O)CN1CCN(C(=O)OCC)CC1 (stereo not given)
-3.4%	0%	-1	-1%	CCN(CC)CCNC(=O)Cc1nn(Cc2ccccc2)c(=O)c2ccccc12
-5.3%	-11%	4[21.1 µM]	-4%	Cc1cc(C)n2nc(C(=O)NC(c3ccccc3)c3ccccc3)nc2n1
-2.4%	18%	-12	-2%	C/C(CC(=O)Nc1cc(C)ccn1)=N\NC(=O)C(=O)NC(C)C
?	?	-4	-1%	N#CC1=C2N=C(N)c3ccccc3N2C2=C(C(=O)CCC2)C1c1ccccc1F (stereo not given)
3.4%	0%	1	-15%	Cn1cc(CNCc2cn(C)nc2-c2ccc(C3CCCCC3)cc2)cn1
-1.5%	-2%	/	?	O=C(c1cc(COc2cccc3cnccc23)on1)N1CCCC(CCCO)C1 (stereo not given)
0.5%	-17%	10	6%	O=C(Nc1ccccc1C(=O)O)c1ccc(Cl)c(S(=O)(=O)N2CCOCC2)c1
2.2%	1%	-10	-6%	CCOC(=O)C1=C(O)/C(=C/c2ccccn2)SC1=Nc1ccc(Cl)cc1
2.1%	15%	9	-5%	CC(C)CNC(=O)C(=O)NNC(=O)C1CCCCC1
0.3%	-10%	/	/	CC(C)Nc1nnc(SC(C)C(=O)N(C)C2CCCCC2)s1 (stereo not given)

An excerpt from above in order of heavy-atom count, smallest number first.
Rango-impB inh	Rango release inh	GLA inh pH 4.5	miR-21 FLuc	mol
1.3%	-13%	-10	-3%	CCOCC(=O)Nc1nnc(COCC)s1
0.4%	-1%	-2	-48%	Cc1cccc(Nc2nnc(SCC3CCCCO3)s2)c1 (stereo not given)
-1.2%	-12%	/	0%	CCC(C)N1CCN(C(=O)c2cc(OC)cc(OC)c2)CC1 (stereo not given)
-2.4%	18%	-12	-2%	C/C(CC(=O)Nc1cc(C)ccn1)=N\NC(=O)C(=O)NC(C)C
?	0%	-13	13%	CCOc1ccc(C2C([N+](=O)[O-])=C(C)N(C)C(=O)N2C)cc1OC (stereo not given)
-0.8%	18%	0	-7%	C=CCc1ccccc1OCC(O)CN1CCN(C(=O)OCC)CC1 (stereo not given)
2.2%	1%	-10	-6%	CCOC(=O)C1=C(O)/C(=C/c2ccccn2)SC1=Nc1ccc(Cl)cc1
3.4%	0%	1	-15%	Cn1cc(CNCc2cn(C)nc2-c2ccc(C3CCCCC3)cc2)cn1
0.5%	-17%	10	6%	O=C(Nc1ccccc1C(=O)O)c1ccc(Cl)c(S(=O)(=O)N2CCOCC2)c1
-1.5%	-2%	/	?	O=C(c1cc(COc2cccc3cnccc23)on1)N1CCCC(CCCO)C1 (stereo not given)
0.0%	-8%	/	2%	CC(=O)N1c2ccc(S(=O)(=O)N3CCCCC3)cc2CC1C(=O)Nc1cccc(C)c1 (stereo not given)
3.5%	-8%	3	2%	COc1ccc(NS(=O)(=O)c2ccc(O)c(C(=O)OCC(=O)Nc3ccc4c(c3)OCCO4)c2)cc1

Screening data: PubChem, National Center for Advancing Translational Sciences (NCATS)
